# From PubChem BioAssay
# gsp antagonist: antagonists of gsp mutant (McCune-Albright syndrome). gsp-mutant cells, cAMP HTRF, 30 min; control for the full effect not named in the record. Potency, µM (doses to about 76.9 µM), inactives show at the top dose activity change, negative = inhibition, most hits filed as inhibitors. 0.4% of 340,000 active; active = falling curve of any shape with a large fitted effect; inconclusive = falling curve, mostly with a smaller effect; inactive = flat or rising curve; cell line not stated here;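 note: intracellular cAMP measured with PDE inhibitor Ro 20-1724 present during compound exposure; potency is the fitted concentration of half-maximal effect; % is set by controls: 0 for no effect and ±100 for the full control effect; nearly all actives have a fitted effect of over 65% in size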
#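 Cells in G418 medium, seeded 16-24 h, 37C; buffer exchange to DPBS + 1 mM CaCl2, 0.5 mM MgCl2, 0.05% BSA; cpds in DMSO + […] (300 uM stock), 30 min 37C; HTRF cAMP detection.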
# gsp agonist: agonists of gsp mutant (McCune-Albright syndrome); gsp mutant cells, cAMP HTRF, 30 min; control for the full effect not named in the record; Potency, µM (doses to about 76.9 µM), for the others: at the top dose activation (cAMP increase), usual class: activators; 0.13% of 340,000 active; AID 624287; active = well fitted activation curve with a large enough effect; inconclusive = small, poorly fitted or top-dose-only effect, or another doubt; inactive = no such curve, though single readings can be large or run the other way; cell line not stated here;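 note: phosphodiesterase inhibitor Ro 20-1724 added with compounds to block cAMP breakdown; potency is the fitted concentration of half-maximal effect; nearly all actives have a fitted effect of over 60% in size; about a fifth of the inactives were tested at one dose only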
#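 Cells stably selected in G418 were plated at 2000/well, grown 16-24 hr, then given compounds in DMSO with the PDE inhibitor […] (300 uM solution added) for 30 min at 37C; cAMP was read by HTRF.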
# D2 PAM: potentiates the human D2 dopamine receptor allosterically | potentiation, % (test concentration not listed) | P14416 | DiscoveRx D2 beta-arrestin cells, luminescence, 90 min; 100% = 57 uM dopamine signal | 0.23% of 360,000 active | AID 624464; active = potentiation of 50% or more; inconclusive = 30% to 50%; inactive = 30% or less;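 note: compound concentration not given in the record; tested on top of an EC20 dose of dopamine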
#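 D2 cells co-treated with compound plus 50 nM dopamine (EC20) for 90 min at 37 deg C to detect potentiation. Beta-arrestin recruitment was read as enzyme-fragment luminescence after 1 h at ambient temperature. Full response was set by 57 uM dopamine.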
# CtBP-E1A blk: CtBP/E1A binding inhibition | AlphaScreen GST-E1A/His-CtBP binding, 1536-well; hits give low values; control for the full effect not named in the record | activity change, % (test concentration not listed) | 0.49% of 340,000 active | AID 651724; in the data active means activity change below about -65%; inconclusive means about -30% to -65%; inactive means above about -30%; note: % is set by controls: 0 for no effect and ±100 for the full control effect; compound concentration not given in the record
#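 GST-E1A and His-tagged CtBP (125 nM each as 5X stock) were preincubated with pin-transferred compound for 2 h at 37 °C in the dark, then glutathione donor and nickel acceptor beads were added for 1 h before AlphaScreen reading.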
# D2 ag: human D2 receptor agonism in beta-arrestin assay. P14416. 0.084% of 360,000 active. activation, % (test concentration not listed). DiscoveRx PathHunter D2 beta-arrestin, luminescence, 90 min; 100% = 57 uM dopamine signal; in the data active = activation above about 40%; inconclusive = about 15% to 40%; inactive = below about 15%; note: compound concentration not given in the record; the text of the record calls up to 30% inactive
#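 Agonist mode: compounds alone added to overnight-plated D2 PathHunter cells for 90 min at 37 C, with 57 uM final dopamine (EC100) defining full response. Beta-arrestin recruitment detected by chemiluminescent reagent, read after 1 h at ambient temperature.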
# Six1-Eya2 inh: inhibitors of human Six1/Eya2 interaction; AlphaScreen GST-Six1/His-Eya2 binding, biochemical; hits give low values; control for the full effect not named in the record; 0.56% of 360,000 active; activity change, % (concentration not given with the values); in the data active = activity change below about -65%; inconclusive = about -30% to -65%; inactive = above about -30%; note: % is set by controls: 0 for no effect and ±100 for the full control effect
# Target sequence (O00167 whole entry, looked up): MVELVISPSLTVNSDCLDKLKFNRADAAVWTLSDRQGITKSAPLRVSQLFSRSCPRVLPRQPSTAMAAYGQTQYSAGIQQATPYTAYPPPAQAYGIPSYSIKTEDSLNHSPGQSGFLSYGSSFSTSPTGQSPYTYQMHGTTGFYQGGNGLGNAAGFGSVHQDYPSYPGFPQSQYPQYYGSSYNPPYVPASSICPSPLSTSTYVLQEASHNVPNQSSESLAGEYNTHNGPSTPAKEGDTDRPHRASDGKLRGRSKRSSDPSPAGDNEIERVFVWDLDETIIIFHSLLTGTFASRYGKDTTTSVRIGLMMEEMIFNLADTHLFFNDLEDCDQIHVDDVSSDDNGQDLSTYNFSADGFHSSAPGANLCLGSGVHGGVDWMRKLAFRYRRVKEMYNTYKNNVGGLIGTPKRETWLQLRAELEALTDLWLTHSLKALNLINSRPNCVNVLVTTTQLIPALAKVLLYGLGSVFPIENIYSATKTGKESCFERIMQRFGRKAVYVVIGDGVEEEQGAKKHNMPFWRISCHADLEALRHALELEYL
# Target sequence (Q15475 whole entry, looked up): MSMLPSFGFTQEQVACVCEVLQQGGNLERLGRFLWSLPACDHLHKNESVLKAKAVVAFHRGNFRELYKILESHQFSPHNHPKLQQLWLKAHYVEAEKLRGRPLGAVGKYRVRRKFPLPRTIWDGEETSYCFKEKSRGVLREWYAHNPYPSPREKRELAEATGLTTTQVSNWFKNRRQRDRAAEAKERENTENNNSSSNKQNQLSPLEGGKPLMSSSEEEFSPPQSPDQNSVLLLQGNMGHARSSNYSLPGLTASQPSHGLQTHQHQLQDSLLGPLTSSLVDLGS
#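 AlphaScreen luminescence read after one hour at 37 °C in darkness. Pin-transferred compounds met GST-Six1 and His-Eya2 protein (5X stock 250 nM/500 nM) plus glutathione donor and Ni-chelate acceptor beads (5X, 50 ug/mL).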
# * = called active by the depositor; ? = inconclusive; . = no result given; [ ] = another dose, or the depositor's remark.
SMILES,gsp antagonist,gsp agonist,D2 PAM,CtBP-E1A blk,D2 ag,Six1-Eya2 inh
CCCS(=O)(=O)N1CCC(C(=O)N2CCC(Cc3ccccc3)CC2)CC1,-4%,-15%,-8,5,-4.1,0
CSc1nc2ccsc2c(=O)n1-c1ccccc1,2%,-35%[inhibitor],-5,6,1.3,13
Cc1ccc(C2=NC(C(F)(F)F)(C(F)(F)F)c3c(n(-c4ccc(F)cc4)c(=O)[nH]c3=O)N2)cc1,-21%,-14%,-1,3,-2.3,0
CCOc1ccc(N(CC(=O)Nc2cccc(N(C)S(C)(=O)=O)c2)S(=O)(=O)c2ccccc2)cc1,-8%,2%,-6,-6,1.5,-24
Cc1cc(C)n(CC(O)COc2cccc(OCC(O)Cn3nc(C)cc3C)c2)n1 (stereo not given),-14%,-8%,-1,14,2.6,1
O=C(NC1CCN(Cc2nnnn2CCc2ccccc2)CC1)c1ccccc1F,5%,20%,-5,3,0.8,4
COc1ccc(OC)c(C2CC(c3c(-c4ccccc4)c4cc(Cl)ccc4[nH]c3=O)=NN2S(C)(=O)=O)c1 (stereo not given),-7%,-2%,-7,-2,0.7,2
CC(=O)c1cccc(NC(=O)Cn2nc(-c3ccc(Cl)cc3)ccc2=O)c1,4%,5%,-4,-8,-7.1,0
CN1CC(=O)N2[C@H](c3ccc4c(c3)OCO4)c3[nH]c4ccccc4c3C[C@@H]2C1=O,-12%,.,3,-1,-4.4,0
COC(=O)C1C2CC(C(Br)C2Br)C1C(=O)O (stereo not given),11%,-9%,-1,7,-1.1,4
O=C(Nc1c(C(=O)O)[nH]c2ccccc12)NC1CCCCC1,-6%,10%,-28,-2,-8.9,6
CC(=O)n1nc(-c2cccc(C)c2)nc1SCC(=O)Nc1ccccc1,-19%,-26%,-16,-13,-3.5,-3
Cc1cccc(C(=O)Nc2nnc(S(=O)(=O)N3CCCCCC3)s2)c1,?,?,-7,-1,-3.4,-2
CC(=O)Nc1ccc(NC(=O)COc2c(C)cc(Br)cc2C)cc1,.,7%[15.4 µM],-14,-5,-2.6,4
O=c1[nH]c(CN2CCN(Cc3ccc4c(c3)OCO4)CC2)nc2ccccc12,-1%,2%,-35,1,-0.7,2
O=C(CCCOc1cccc(Br)c1)NCCOc1ccccc1,14%,-8%[15.4 µM],-8,0,0.0,3
CSc1ccccc1NC(=O)c1ccc([N+](=O)[O-])cc1,-6%,-1%[15.4 µM],-8,-14,-0.9,-24
O=C1C2C3C=CC(C4CC34)C2C(=O)N1/N=C/c1cccs1 (stereo not given),14%,-43%[inhibitor],61*,-2,8.7,11
Cc1ccc(S(=O)(=O)NCc2ccccc2)cc1,2%,13%,-2,0,0.7,2
COc1ccc(OC)c(C(c2nnnn2CCc2ccccc2)N2CCN(c3ccccc3)CC2)c1 (stereo not given),-2%,-11%,-16,-23,-0.1,?
O=S(=O)(c1cccs1)N1CCN(CC(O)COc2cc(Cl)ccc2Cl)CC1 (stereo not given),?,-5%,-17,-4,-0.3,-4
Cc1cc(C)n(-c2ccc(C(=O)NCc3cccs3)cc2)n1,6%,-2%,-17,7,-0.1,1
Nc1cccnc1-n1nc(C(F)(F)F)cc1C(F)(F)F,4%,1%[15.4 µM],2,-3,0.5,7
Cc1nc2sc3c(c2c(=O)n1/N=C/c1cccnc1)CCCC3,-38%,33%[15.4 µM],-4,5,0.2,0
CCCC(c1nnnn1C1CCCCC1)N1CCN(C2CCCC2)CC1 (stereo not given),-1%,0%,-10,1,-2.1,9
CN=C1C([N+](=O)[O-])=CC=C2C1=NC1(CCCCC1)N2O,-3%,6%,-14,-22,-2.7,-14
O=C(COC(=O)c1cc(F)c(F)cc1Cl)NC1CCCCCC1,.,-2%,-13,-5,0.0,12
CCOC(=O)N1CCC(NC(=O)CC(NS(=O)(=O)c2ccc(Cl)cc2)c2ccco2)CC1 (stereo not given),3%,-40%[inhibitor],-3,6,0.9,8
COc1cccc(NC(=O)CN(C)C(=O)c2cc(-c3ccco3)nc3ccccc23)c1,-12%,11%[15.4 µM],-3,-7,-2.4,-16
CCN1CCN(c2nc(-c3cccs3)nc3ccccc23)CC1,8%,-6%,-32,-3,-4.8,-7
O=C(NCc1ccc(F)cc1)C1CCC(CNS(=O)(=O)c2cccs2)CC1 (stereo not given),-5%,13%[15.4 µM],-8,-1,-13,-2
O=C1CC(NC(=O)c2ccc(Cl)cc2)C(=O)N1 (stereo not given),0%,-21%,-2,7,-0.6,1
O=C(Cn1nnc(-c2ccccc2Cl)n1)N1CCN(S(=O)(=O)c2ccc(Cl)cc2)CC1,-22%,-16%,9,-2,-0.3,-1
COc1ccc(-c2nc(-c3ccccn3)ncc2S(C)(=O)=O)cc1,-2%,-2%[15.4 µM],-10,0,0.4,-3
CN(C)C(=O)c1ccc(Oc2ccc(C(=O)N(C)C)cc2)cc1,6%,-5%,14,2,2.0,10
CCN(CC)CCCNC(=O)Cn1ccc2ccccc2c1=O,8%,-2%[15.4 µM],-18,-15,-2.7,-8
CC(=O)Nc1ccc(S(=O)(=O)N(C)CC(=O)NNc2c(F)c(F)cc(F)c2F)cc1,5%,-26%,-4,0,8.5,-3
CC(=O)CC(=O)NC1C2CC3CC(C2)CC1C3 (stereo not given),8%,-5%,-9,5,0.0,5
O=c1[nH]c(SCc2ccccc2)nc2[nH]ncc12,2%,-12%[15.4 µM],3,1,0.1,13
CCN1CCN(CCCNC(=O)c2ccc(CS(=O)c3ccc(Br)cc3)o2)CC1 (stereo not given),13%,22%,-5,4,-7.0,0
CCC(OC(=O)c1ccco1)C(=O)NCc1ccc2c(c1)OCO2 (stereo not given),-2%,0%,-3,-18,-5.0,11
CCOC(=O)C1CCN(C(=O)CN2C(=O)C(CC)Oc3ccccc32)CC1 (stereo not given),-15%,-23%,-13,51,-1.2,24
O=C(N/N=C/c1c(O)n(-c2ccc(Cl)cn2)c(=O)c2ccccc12)c1ccncc1,-27%,-7%[15.4 µM],5,21,3.2,-23
COc1cc(CCN=Cc2ccccc2O)c([N+](=O)[O-])cc1OC,.,.,-7,4,4.4,2
O=C(COc1ccc2ccccc2c1)Nc1ccc(S(=O)(=O)N2CCCCCC2)cc1,-12%,-12%,9,7,1.9,-1
Cc1c(Cl)cnc(NC(=O)COC(=O)CCS(=O)(=O)c2ccccc2)c1Cl,-5%,-28%,4,-3,-1.2,-1
CC(C)C(NC(=O)CCN1C(=O)c2ccccc2C1=O)c1ccccc1 (stereo not given),4%,-2%[15.4 µM],-8,-1,2.9,10
O=C(CCCc1nc2ccccc2s1)Nc1ccccc1,-3%,9%,-6,5,-0.6,5
CCOC(=O)CN1C(=O)N[C@@H](c2ccc(Br)cc2)C(C(=O)OC)=C1C,8%,.,-9,-5,-3.0,1
CC1(Cc2ccc3c(c2)OCO3)C(=O)Nc2c(Cl)ccc(Cl)c21 (stereo not given),.,.,-1,1,7.0,-1

# The results go on:
SMILES,gsp antagonist,gsp agonist,D2 PAM,CtBP-E1A blk,D2 ag,Six1-Eya2 inh
CCn1cc(C(=O)N2CCc3ccccc32)c(=O)c2cc(S(=O)(=O)N3CC(C)CC(C)C3)ccc21 (stereo not given),-1%,-5%[15.4 µM],-11,-3,3.6,-7
Cn1cc(Br)c(NS(=O)(=O)c2ccc(Cl)s2)n1,7%,-24%,-10,.,-4.7,0
CCOc1ccc(/C=C/C(=O)c2ccccc2)cc1OC,3%,4%[15.4 µM],10,-2,3.9,0
FC(F)(Cl)c1nnc2ccc(Sc3ccccn3)nn12,5%,4%,-3,5,11,1
COc1cccc(C(=O)O/N=C(\N)c2ccc(C)cc2)c1,4%,-21%,?,.,-0.2,47
Cc1c(C=NNc2ccccc2)[nH]c(=O)[nH]c1=O,-14%,-6%,-14,3,-2.2,-6
COc1ccccc1/C=C1\SC(=S)N(C(C(=O)O)c2ccccc2)C1=O (stereo not given),8%,?,-7,5,-5.9,-5

# Of the compounds above, 8 contain an aryl methoxy group:
SMILES,gsp antagonist,gsp agonist,D2 PAM,CtBP-E1A blk,D2 ag,Six1-Eya2 inh
COc1ccc(OC)c(C2CC(c3c(-c4ccccc4)c4cc(Cl)ccc4[nH]c3=O)=NN2S(C)(=O)=O)c1 (stereo not given),-7%,-2%,-7,-2,0.7,2
COc1ccc(OC)c(C(c2nnnn2CCc2ccccc2)N2CCN(c3ccccc3)CC2)c1 (stereo not given),-2%,-11%,-16,-23,-0.1,?
COc1cccc(NC(=O)CN(C)C(=O)c2cc(-c3ccco3)nc3ccccc23)c1,-12%,11%[15.4 µM],-3,-7,-2.4,-16
COc1ccc(-c2nc(-c3ccccn3)ncc2S(C)(=O)=O)cc1,-2%,-2%[15.4 µM],-10,0,0.4,-3
COc1cc(CCN=Cc2ccccc2O)c([N+](=O)[O-])cc1OC,.,.,-7,4,4.4,2
CCOc1ccc(/C=C/C(=O)c2ccccc2)cc1OC,3%,4%[15.4 µM],10,-2,3.9,0
COc1cccc(C(=O)O/N=C(\N)c2ccc(C)cc2)c1,4%,-21%,?,.,-0.2,47
COc1ccccc1/C=C1\SC(=S)N(C(C(=O)O)c2ccccc2)C1=O (stereo not given),8%,?,-7,5,-5.9,-5
